Assay outcomes: PubChem BioAssay, several laboratories
HNF4A DNA FP – change in binding of human HNF4 alpha to DNA | 360,000 compounds, 0.3% hits | activity change, % at 10 µM | AID 1224865 | HNF4a-FITC DNA binding, fluorescence polarization, 1 h; in the data active means activity change above about 30%, passing the limit was not always enough;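 further: controls were the assay level and a saturating level of protein; the project sought stronger binding though the title names inhibitors; some compounds called inactive have numbers as strong as hits; positive values seem to mean higher polarization but the record does not say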
Target sequence (P41235 whole entry, looked up): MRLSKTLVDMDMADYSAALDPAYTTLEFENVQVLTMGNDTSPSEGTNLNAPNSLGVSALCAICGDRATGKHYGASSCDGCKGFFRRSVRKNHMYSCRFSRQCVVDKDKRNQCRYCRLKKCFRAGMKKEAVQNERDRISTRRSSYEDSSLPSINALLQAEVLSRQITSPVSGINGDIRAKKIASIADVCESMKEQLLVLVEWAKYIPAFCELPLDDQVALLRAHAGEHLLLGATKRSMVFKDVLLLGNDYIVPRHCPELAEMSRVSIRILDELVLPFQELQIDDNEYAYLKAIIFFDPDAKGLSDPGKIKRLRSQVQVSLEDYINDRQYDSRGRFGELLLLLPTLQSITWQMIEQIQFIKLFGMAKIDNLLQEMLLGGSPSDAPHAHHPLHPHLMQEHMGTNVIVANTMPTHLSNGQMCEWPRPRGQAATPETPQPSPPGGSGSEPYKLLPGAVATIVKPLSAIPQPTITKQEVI
LANA-H2A inh – blocks KSHV LANA binding to histone H2A/H2B; Q9QR71; cell-free LANA-H2A/H2B peptide, fluorescence polarization; inhibition, % (test concentration not listed); 320,000 compounds, 0.6% hits; AID 2629; in the data active means inhibition mostly above about 10%, no sharp cut-off; inactive means mostly below about 6.7%;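 further: stock transfer was 7.5 nL into about 10 µL; 0% = median of vehicle wells and 100% = median of positive control wells; one replicate is shown; the record names a cut of 25% in any replicate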
Vif TR-FRET – HIV-1 Vif–A3G interaction blockers – biochemical, TR-FRET, GST-Vif 1-94, biotin-A3G peptide, dose response retest, primary screen (AID 1117319); TR-FRET GST-Vif / biotin-A3G peptide binding; higher % means a stronger effect; test concentration not given here; strong numbers were not always called active; inhibition, %; hits with a dose series show IC50 in µM; 260,000 compounds, 0.57% hits;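 active means above the screen mean plus three standard deviations and confirmed in dose response; inconclusive means results disagree or hit not tested in dose response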;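 further: Vif residues 1-94 fused to GST binding biotinylated APOBEC3G peptide 110-148; 0% = full assay without inhibitor and 100% = GST in place of GST-Vif; retest series ran down from 100 µM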
Calb FLC – C. albicans growth modulation with fluconazole | C. albicans CaCi-2 (fluconazole-resistant clinical isolate) + fluconazole, Alamar Blue growth, 48 h | 300,000 compounds, 0.57% hits | growth inhibition, % (test concentration not listed);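 active means most replicates above 75%; inconclusive means exactly half above 75%; inactive means most below 75%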;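 further: all wells also contain fluconazole at 8 µg/ml as a sub-toxic cotreatment; 0% = median of DMSO wells and 100% = median of geldanamycin control wells; wells of about 8 µL received 7.5 nL stock; the first replicate is given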
ALR H2O2 inh – human ALR oxidase inhibition via reduced H2O2; inhibition, % (concentration not given with the values); purified ALR, DTT oxidation, H2O2 HRP-luminol luminescence; 290,000 compounds, 3.8% hits;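 active means mean and each replicate at 75% or more; inconclusive means only one of the two met; inactive means neither met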;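 further: stock transfer was 7.5 nL into about 7.5 µL; 0% = neutral wells and 100% = wells with inactivated enzyme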
Target sequence (P55789 whole entry, looked up): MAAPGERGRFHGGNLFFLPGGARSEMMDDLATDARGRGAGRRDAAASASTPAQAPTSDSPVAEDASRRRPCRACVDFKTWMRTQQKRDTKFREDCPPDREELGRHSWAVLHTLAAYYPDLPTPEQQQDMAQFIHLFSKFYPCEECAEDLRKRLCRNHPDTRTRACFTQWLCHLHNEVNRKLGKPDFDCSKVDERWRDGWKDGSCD
Beta2AR agonist – agonists of human beta-2 adrenergic receptor inducing internalization | Am2.2-beta2AR cells, FAP receptor internalization, flow cytometry; reference of the scale not given here | response, % (concentration not given with the values) | 340,000 compounds, 0.43% hits | AID 504454;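 active means response above a set limit, near 3 SD of response in nonfluorescent compounds, cut at about 42% in these data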;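 further: stock transfer was 100 nL into about 11 µL; a reference agonist was the positive control; negative values mostly stem from fluorescent compounds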
Target sequence (P07550 whole entry, looked up): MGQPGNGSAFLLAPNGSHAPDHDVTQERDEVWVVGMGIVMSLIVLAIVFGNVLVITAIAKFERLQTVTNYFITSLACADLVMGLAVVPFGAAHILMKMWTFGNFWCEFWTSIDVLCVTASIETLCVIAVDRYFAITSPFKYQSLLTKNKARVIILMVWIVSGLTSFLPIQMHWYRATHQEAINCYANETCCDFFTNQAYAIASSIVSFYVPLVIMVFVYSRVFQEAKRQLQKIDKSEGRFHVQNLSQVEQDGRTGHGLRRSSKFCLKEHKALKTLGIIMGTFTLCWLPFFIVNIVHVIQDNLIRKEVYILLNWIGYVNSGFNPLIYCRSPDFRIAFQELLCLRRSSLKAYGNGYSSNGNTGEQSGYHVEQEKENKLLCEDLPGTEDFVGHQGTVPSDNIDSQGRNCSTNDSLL
RanGTP-Impb inh – disruptors of Ran-importin-beta complex formation – biochemical, FRET, CFP-Ran, YFP-importin-beta, homogeneous, primary screen; inhibition, % (test concentration not listed); cell-free CFP-Ran/YFP-importin-beta FRET ratio; 300,000 compounds, 1.1% hits; AID 2216;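 active means most replicates above 15%; inconclusive means exactly half above 15%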;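 further: 0% = DMSO wells and 100% = Ran loaded with GDP instead of GTP; wells of about 40 µL received 100 nL stock; the first replicate is given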
Active calls of the source: *; ? = inconclusive; / = no result given; & = joins results of further samples.

SMILES	HNF4A DNA FP	LANA-H2A inh	Vif TR-FRET	Calb FLC	ALR H2O2 inh	Beta2AR agonist	RanGTP-Impb inh
CC(=O)N1CCc2cc(S(=O)(=O)NCCC(=O)N3CCc4ccccc4C3)ccc21	-3.6	-1.3	3%	-7	/	6	-0.9
CCOC(=O)c1nnc(-c2ccccc2)nc1N1CC(C)OC(C)C1 (stereo not given)	-0.6	17	10%	0	-4	-20	4.7
COc1ccc(OC)c(NC(=O)c2cn(C)c(=O)c3cc(OC)c(OC)cc23)c1	-1.9	-0.8	1%	20	-35	0	1.2
COCCN(CCOC)C(=O)N1CCOCC1	1.4	-1.5	-1%	-8	-5	2	2.9
COc1ccc(CN2CCN(C(=O)c3c(-c4ccccc4)noc3C)CC2)cc1F	2.4	2.4	-7%	/	-3	6	/
COc1cccc(-c2nnn(CC(=O)N3CCC(C)CC3)n2)c1	0.6	-2.6	/	1	9	-4	-5.4
Cc1ccc(-c2csc(NC(=O)C3CC=CCC3C(=O)O)c2C(=O)OC(C)C)cc1 (stereo not given)	0.2	-1.3	75%	27	69	0	-2.0
O=C(O)CSCC(=O)N(Cc1ccccc1)c1nc(-c2ccccc2)c(-c2ccccc2)s1	-11	-4.3	/	7	18	3	?
CCOc1ccc(NC(=O)CN(C)S(=O)(=O)c2cccs2)cc1	-1.2	5.5	0%	12	-2	1	0.1
CN1c2ccccc2-c2nc3ccccc3n2C1c1ccncc1 (stereo not given)	1.5	-4.9	3%	0	4	-3	5.0
CCOC(=O)CN(C(=O)c1snc(C(N)=O)c1N)C(C(=O)NC1CCCCC1)c1ccc(F)cc1 (stereo not given)	1.6	2.8	/	34	/	2	3.0
COCCN(C(=O)CSc1nnc(-c2ccccc2C)n1C)c1c(N)n(Cc2ccccc2)c(=O)[nH]c1=O	0.7	-8.5	-10%	-3	-7	2	0.6
CC(C)N=C1NN=C(c2ccc(F)cc2)CS1	2.4	-0.5	2%	-6	67	-6	11
O=C(CNC(=O)c1ccco1)OCC(=O)c1ccc(Br)cc1	0.1	-0.1	/	3	-14	-2	3.9
CCOc1ccc2nc(N3CCCC(C(=O)NCCCN4CCCCC4)C3)sc2c1 (stereo not given)	-0.3	3.2	/	7	12	4	-0.6
COc1ccc(/C=N/NC(=O)CCN2CCCCC2c2cccnc2)cc1Cn1cc([N+](=O)[O-])cn1 (stereo not given)	-1.7	3.3	-2%	-1	-4	-11	-2.5
O=C(O)CCN1CCOCC1	-3.9	2.6	72%	-5	/	-1	-2.4
Cc1noc(C)c1COc1ccccc1C(=O)N(C)Cc1ccc(F)cc1	-2.0	/	-3%	/	/	3	/
O=C(Nc1ccc(Cl)cc1)/C(=C/c1cccc(O)c1)c1nc2ccccc2s1	11	0.4	27%	-14	27	25	0.0
COc1ccccc1NC(=O)C1CCCN(S(=O)(=O)c2cnc[nH]2)C1 (stereo not given)	3.5	2.8	7%	-1	-140	2	?
Cc1ccc(NC(=O)CNCc2ccccc2Cl)cc1S(=O)(=O)N(C)C	-3.0	-2.8	-4%	-4	/	-17	5.9
Cc1ccc(C2NC(C(=O)O)CS2)cc1 (stereo not given)	/	1.2	?	7	7	/	1.1
CCC(C)Sc1cccc(-c2nc3ccc(C)cn3c2NC2CCCCC2)c1 (stereo not given)	3.3&2.8	1.3	/	8	0	14	6.4
Cc1ccc(C(=O)COC(=O)CCc2nc3ccccc3[nH]c2=O)cc1C	1.2	-6.8	-5%	-3	-8	12	2.0
O=C(CCC(=O)N1CCCCC1)Nc1ccc(Cl)c(Cl)c1	3.8	-6.1	/	-5	-1	0	3.9
Carrying on.
SMILES	HNF4A DNA FP	LANA-H2A inh	Vif TR-FRET	Calb FLC	ALR H2O2 inh	Beta2AR agonist	RanGTP-Impb inh
CC(NC(=O)c1cccnc1)C(=O)O (stereo not given)	-0.5	-2.8	-2%	3	2	6	-1.8
CCCn1c(=O)c(C(=O)Nc2ncccc2O)c(O)c2ccccc21	0.1	-20	/	3	-5	4	0.4
Cc1cc(C)nc(N2CCCC(C(=O)NCc3ccccc3F)C2)n1 (stereo not given)	2.2	2.1	-3%	-19	2	-15	-0.4
NC(=O)c1ccccc1OCCOc1ccc(Br)cc1	1.0	0.2	-9%	-6	-1	7	?
CCOc1ccc2nc(N/C(N)=N/C(=S)Nc3cccc(OC)c3)nc(C)c2c1	8.5	2.6	-25%	1	/	13	2.9
COc1ccc(NC2SC(=O)N(CC(=O)O)C2=O)cc1 (stereo not given)	3.3	0.7	?	-21	12	0	-0.8
CS(=O)(=O)c1ccc(-n2c(=O)n(Cc3ccccc3)c(=O)c3[nH]cnc32)cc1	-0.8	-3.2	-9%	0	0	-2	-1.2
O=C(NCc1ccccc1Cl)C(=O)NCC1CCCN1S(=O)(=O)c1cccs1 (stereo not given)	1.1	2.1	-1%	-3	-8	-4	0.5
NC(=O)C1(N2CCCCC2)CCN(C(=O)c2ccc(-n3cnnn3)cc2)CC1	-0.3	-0.3	27%	2	-6	-5	-1.6
CCc1cn(C2CC(O)C(CO)O2)c(=O)[nH]c1=O (stereo not given)	1.1	-8.9	-7%	/	/	-11	/
COc1ccccc1NC(=O)C1=C(C)NC(=O)NC1c1cccc(OC)c1OC (stereo not given)	-1.4	0.5	-6%	-14	-6	-4	3.4
Cc1ccc(OCC(=O)NCCCNC(=O)c2cccnc2)cc1C	3.5	1.6	/	4	6	-2	-1.6
CN(C)NC(=S)NC1CC2CCC1C2 (stereo not given)	-0.3	2.3	?	-2	-16	1	3.3
CC(C)(C)OC(=O)N1CCC2(CC1)C(C#N)=C(N)OC1=C2C(=O)CCC1	-0.9	-3.3	?	-1	/	-3	1.9
Oc1ccc(-n2nnnc2SCc2c(F)cccc2Cl)cc1	-3.3	0.3	-3%	44	1	-12	0.6
CCn1c2ccccc2c2cc(NC(=O)CSc3nnc(C4CC4)n3Cc3ccco3)ccc21	0.4	-1.0	14%	2	98*	6	1.6
N#CCCn1cc(/C=N/O)c(-c2cccc([N+](=O)[O-])c2)n1	-1.1	3.5	-9%	-3	11	2	0.1
COc1ccccc1N1CCN(C(=O)c2ccc3c(c2)NC(=O)C(CSCc2ccccc2C)N3)CC1 (stereo not given)	/	3.5	/	-14	/	/	-3.7
CC1(N2CCOCC2)CC2(O)C(=[N+]1[O-])CCc1nonc12 (stereo not given)	/	6.1	30%	1	/	/	4.6
O=[N+]([O-])/C(C(=C(Cl)Cl)N1CCOCC1)=C1\NCCO1	-1.9	0.2	3%	9	/	4	-3.4
O=S(=O)(Cc1ccc(Cl)cc1)CC(O)COCc1ccccc1 (stereo not given)	4.2	-2.8	2%	17	/	1	1.4
CCOc1ccc(OCC(=O)OCC(=O)N2CCN(C(=O)c3ccco3)CC2)cc1	-0.6	-1.8	11%	2	20	-6	/
CCN1CCN(CC(=O)Nc2ccc(C)cc2C)C(=O)C1=O	4.0	-0.7	0%	-3	-7	6	-5.1
COc1ccccc1NS(=O)(=O)c1cc2c3c(c1)CCN3C(=O)CC2	-0.1	-0.1	8%	0	-2	-6	-1.4
O=C(COC(=O)c1ccccc1NC(=O)c1ccco1)Nc1ccc2c(c1)OCO2	1.1	2.8	-2%	-25	-3	1	-1.7

Three entries already listed, ordered by SMILES length, highest first:
SMILES	HNF4A DNA FP	LANA-H2A inh	Vif TR-FRET	Calb FLC	ALR H2O2 inh	Beta2AR agonist	RanGTP-Impb inh
Cc1cc(C)nc(N2CCCC(C(=O)NCc3ccccc3F)C2)n1 (stereo not given)	2.2	2.1	-3%	-19	2	-15	-0.4
CCc1cn(C2CC(O)C(CO)O2)c(=O)[nH]c1=O (stereo not given)	1.1	-8.9	-7%	/	/	-11	/
CN(C)NC(=S)NC1CC2CCC1C2 (stereo not given)	-0.3	2.3	?	-2	-16	1	3.3

Further structures.
SMILES	HNF4A DNA FP	LANA-H2A inh	Vif TR-FRET	Calb FLC	ALR H2O2 inh	Beta2AR agonist	RanGTP-Impb inh
CC(=O)N(C)c1ccc(NS(=O)(=O)c2cccc3nsnc23)cc1	-2.8	-1.2	/	7	-49	0	-2.1
COc1ccc(Cl)cc1CSc1n[nH]c(C)n1	0.8	-0.5	4%	-4	6	-6	6.6
OCCSc1nc(-c2ccccc2)nc2ccc(F)cc12	5.0	0.7	/	-6	2	-8	1.1
Cc1cc(/C=C2/SC(=O)N(CC(=O)N3CCCC3)C2=O)ccc1N1CCOCC1	21	5.8	2%	-8	39	14	-2.4
CCOc1ccc(S(=O)(=O)Nc2cccc(C(=O)N3CC(C)OC(C)C3)c2)cc1 (stereo not given)	2.0	5.3	4%	-1	/	4	0.3
CCOC(=O)/C(=N\Nc1cccc(C(F)(F)F)c1)N1CCOCC1	3.1	-0.6	/	114*	49	6	0.4
COc1ccc(C(CNC(=O)CNC(=O)c2ccc(F)cc2)N2CCCC2)cc1 (stereo not given)	-2.1	-5.6	-13%	/	-3	7	/
COc1ccccc1C(=O)NC(=O)Nc1c(C)cc(C)cc1C	-1.3	2.2	3%	11	0	-13	-0.9
COc1ccccc1NC(=O)COc1ccc(/C=N/NC(=O)CSCc2ccc(Cl)cc2)cc1	-2.7	1.9	-2%	3	0	-5	3.9
O=C(NCC1CC1)c1ccc2c3n(nc2c1)-c1ccccc1CO3	3.3	-0.2	92%	-9	3	-9	-1.3
CNC(=O)NC(=O)COc1c(F)c(F)cc(F)c1F	4.1	-9.0	-2%	13	-1	-5	0.5
CC(C)c1ccc(N2C=Nc3ccc(C(C)C)cc3C2)cc1	0.9	5.1	-9%	-7	39	12	-3.3
CCSc1nnc(NC(=O)C2Cc3ccccc3CN2S(=O)(=O)CC)s1 (stereo not given)	-3.5	5.9	29%	-16	12	0	6.8
CN(CC(=O)Nc1ccccc1Cl)C(=O)c1ccc(N2CCCCCC2)c([N+](=O)[O-])c1	1.7	2.3	/	/	-5	-7	/
CC(C)(C)C(=O)NC(=S)Nc1ccccc1C(=O)NC1CCCCC1	-1.1	4.4	10%	1	33	3	4.3
COC(=O)c1cn(CCOc2ccccc2OC)c2ccccc12	-2.3	-1.5	7%	14	0	0	0.8
COCCNC(=O)C(c1ccc(OC)cc1)N(Cc1ccco1)C(=O)CCC(=O)Nc1ccccn1 (stereo not given)	0.7	2.7	/	16	2	6	-5.7
Cc1noc(C)c1CSCC(=O)Nc1ccc(OC(F)F)c(Cl)c1	-3.1	-9.3	4%	-6	74	-3	1.3
COc1ccccc1CC(=O)Nc1sc2c(c1C(N)=O)CCCC2	2.5	-1.3	/	8	/	2	-4.9
Cc1ccc(S(=O)(=O)CC(=O)c2cc(C)c(O)c(C)c2)cc1	2.0	-0.7	10%	30	3	0	-0.4
Oc1ccc(O)c2c1C1c3ccccc3C2c2ccccc21	/	-4.6	/	78*	5	/	0.3
O=C(Cc1ccc2ccccc2c1)NC(Cc1ccccc1)C(=O)O (stereo not given)	-0.5	/	-4%	/	/	-1	/
COc1ccc(/C=C/C(=O)Nc2ccc(-n3nncc3-c3ccccc3)cc2)cc1OC	-0.4	-4.5	/	-14	/	19	2.8
Cc1ccc(NC(=O)CSc2nc3ccc(Nc4nc(N5CCOCC5)nc(N5CCOCC5)n4)cc3s2)cc1	-1.0	7.5	/	-12	-5	20	/
COc1ccc(C(=O)C(C)OC(=O)c2sc(C)nc2C)cc1 (stereo not given)	-2.6	-0.1	-3%	/	/	8	/
O=C(Nc1nnc(CCc2ccccc2)s1)C1CCCO1 (stereo not given)	0.1	-9.9	5%	-16	-25	-1	1.6
O=C(Nc1nc2ccccc2[nH]1)C1CC1	0.8	4.0	/	-20	21	-5	-3.0
N#CC1(c2ccccc2)CCCN1C(=O)c1ccc(Br)o1 (stereo not given)	1.0	14	-1%	-4	-5	-6	-1.2
O=C(OCc1nnc(-c2ccc(Cl)cc2)o1)c1ccc(O)cc1	1.0	-2.4	1%	13	-4	-8	7.5
COCCNC(=O)C1Cc2cc(S(=O)(=O)N3CCCC3)ccc2N1C(C)=O (stereo not given)	3.6	5.2	/	-9	0	8	-1.7
